Source: PubChem
Bst PK mod – pyruvate kinase (B. stearothermophilus) modulation. partly purified Bacillus stearothermophilus pyruvate kinase, luminescence ATP production; ribose 5-phosphate activator present at AC10. Potency, µM. 1.2% of 51,000 active. AID 361; in the data active means potency below about 11 µM; inconclusive means mostly about 12 µM to 25 µM; inactive means weaker than that;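 the screen sought inhibitors and activators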;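 note: potency is the fitted concentration of half-maximal effect; scaled between full activation by ribose 5 phosphate and full inhibition by luteolin; about four in five hits inhibit and the cells do not say which; series up to 57 µM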
TsaE inh – displaces an ADP probe from E. coli YjeE (TsaE). purified YjeE, fluorescence polarisation of a bound ADP probe. 0.05% of 71,000 active. Potency, µM. AID 605. P0AF67; active = well fitted falling curve; inconclusive = weaker or top-dose-only fall, or a rising curve; inactive = flat or poorly fitted curve;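 note: top concentration of the series not given in the record; excess ADP was the control for the full effect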
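Fluorescence polarization of a BODIPY Texas Red–ADP probe (2 uM) bound to purified YjeE (10 uM) was read after 15 min room-temperature incubation with compounds. Loss of polarization marks inhibitors; ADP serves as titrated control.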
The depositor's hits bear a star; i = inactive; . = no result given. This is a subset, so the mix of outcomes need not match the whole.

mol | Bst PK mod | TsaE inh
O=C(NCc1ccccc1)N(Cc1nc2ccccc2c(=O)[nH]1)C1CCCC1 | >57 | i
Cc1occc1-c1nnc(SCC(=O)NCCc2ccccc2)n1C(C)c1ccccc1 (configuration not stated) | >57 | i
CCOC(=O)C1=C(CSc2n[nH]c(N)n2)NC(=O)NC1C (configuration not stated) | >57 | i
Cc1cc(NC(=O)CCC2COc3ccccc3O2)no1 (configuration not stated) | >57 | i
CC(C)(O)C#Cc1ccc(C(=O)N2CCN(C(=O)c3ccco3)CC2)cc1 | . | i
CC(=O)N1CCC[C@@]2(CCN(C(=O)Nc3ccccc3)C2)C1 | . | i
Cc1cc(=O)oc(C)c1C(=O)NCC1CCCO1 (configuration not stated) | >26 | .
COC(=O)c1ccccc1NC(=O)C(CCS(C)(=O)=O)NC(C)=O (configuration not stated) | >57 | i
C/C(N)=C(/C#N)C(=O)CSc1nc2cc(Cl)ccc2s1 | >57 | i
COc1ccc(CN(CCCN2CCOCC2)C(=O)Nc2ccccc2)cc1OC | >57 | i
COc1cc(C2c3c(oc4cc(C)c(C)cc4c3=O)C(=O)N2c2cc(C)ccn2)ccc1O (configuration not stated) | >57 | i
COCC(=O)N(Cc1cc2ccccc2[nH]c1=O)c1ccccc1OC | >57 | i

mol | Bst PK mod | TsaE inh
COc1ccc(C(=O)c2oc3ccc(OC)cc3c2N)cc1 | . | i
COC(=O)c1c(-c2cc(OC)c(OC)c(OC)c2)c2ccnc(OCc3ncccn3)c2c(=O)n1Cc1ccnc(C)c1 | . | i
Nc1ncn(C(=O)c2ccco2)n1 | >57 | i
Cc1cc(C)n(-c2nc3ccccc3nc2N2CCOCC2)n1 | . | i
COCCSc1ccccc1C(=O)Nc1nncs1 | >57 | i
CCOC(=O)c1c(-c2cccs2)csc1NC(=O)CCCC(=O)O | >26 | .
Cc1c(-c2cccs2)[n+](=O)c2c(n1[O-])CCCC2 | >26 | .
COc1cc(OC)cc(C(=O)OCc2cc3ccccc3[nH]c2=O)c1 | >57 | i
Cc1ccc(C2CC(c3ccco3)n3nc(N)nc3N2)cc1 (configuration not stated) | . | i
Cc1cc(-c2nnc3n2N=C(c2ccc(-c4ccccc4)cc2)CS3)n[nH]1 | . | i
CC(C)COc1ccc(C(=O)N(Cc2ccco2)C2CCS(=O)(=O)C2)cc1 (configuration not stated) | >57 | i
COc1ccccc1-c1n[nH]c(=S)o1 | >57 | i

The closing 2 entries of the part above open the next one:
mol | Bst PK mod | TsaE inh
CC(C)COc1ccc(C(=O)N(Cc2ccco2)C2CCS(=O)(=O)C2)cc1 (configuration not stated) | >57 | i
COc1ccccc1-c1n[nH]c(=S)o1 | >57 | i
O=C1c2ccccc2C(=O)C1c1ccccc1 | . | i
CCOC(=O)c1c(C2COc3ccccc3O2)csc1NC(=O)c1ccco1 (configuration not stated) | . | i
COC(=O)Nc1ccc(S(=O)(=O)N2c3ccccc3CCC2C)cc1 (configuration not stated) | >57 | i
CCOc1ccccc1NC(=O)CCc1ccc(C)o1 | >57 | i
CCN(CC)Cc1csc(C(N)=O)c1 | >57 | i
CCCn1c(N2CCC(Cc3ccccc3)CC2)nc2c1c(=O)[nH]c(=O)n2C | >57 | i
Cc1ccc(Cn2c(SCCN3CCCCC3)nc3c2c(=O)n(C)c(=O)n3C)cc1 | >57 | i
Cc1cc(=O)[nH]c(/N=C(\N)Nc2cccc3ccccc23)n1 | >57 | i
CCOc1ccc2nc(NC(=O)C3CCN(c4cnccn4)CC3)sc2c1 | >57 | i
NC(=O)C1=CN([C@@H]2O[C@@H](COP(=O)(O)OP(=O)(O)OC[C@@H]3O[C@H](n4cnc5c(N)ncnc54)[C@@H](OP(=O)(O)O)[C@@H]3O)[C@H](O)[C@@H]2O)C=CC1 | . | i
O=C(c1cc2cc(Cl)ccc2oc1=O)N1CCOCC1 | >57 | i
O=C(NCCCn1ccnc1)C1c2ccccc2Oc2ccccc21 | >57 | i

mol | Bst PK mod | TsaE inh
Cc1cc(C)c2cc(CN(CCO)C(=O)Nc3ccc(F)cc3)c(=O)[nH]c2c1 | . | i
Cc1cc(C(C#N)c2ccccc2)n2ncnc2n1 (configuration not stated) | >57 | i
O=S(=O)(NCCc1ccncc1)c1cc(Br)ccc1F | >57 | i
CN(C)c1ccc(-c2cncnc2NCCc2cnc[nH]2)cc1 | . | i
Cn1nc(C(=O)Nc2ccc(S(=O)(=O)N3CCCC3)cc2)ccc1=O | >57 | i
O=C(Nc1ccccc1)N(CCN1CCOCC1)Cc1ccccc1F | >57 | i
Cc1ccc(CNc2ccc3c(c2)OCO3)c(C)c1 | . | i
CCS(=O)(=O)N1CCCC(C(=O)NCC2CCCO2)C1 (configuration not stated) | >57 | i
CC1CN(Cc2cc(=O)n3ccsc3n2)CC(C)O1 (configuration not stated) | >57 | i
COc1cc(-c2nnc3sc(Cc4ccc(Cl)cc4)nn23)cc(OC)c1OC | >57 | i
O=S(=O)(c1ccccc1)N1CCN(S(=O)(=O)c2ccccc2)C1 | . | i
c1ncc(CC2CCNCC2)[nH]1 | . | i

mol | Bst PK mod | TsaE inh
Cc1ccc2nc(-c3ccc(NC(=O)CN4CCN(C(=O)c5ccco5)CC4)cc3)sc2c1 | . | i
CSc1nnc(C)c(=O)[nH]1 | >26 | .
Cc1ccnc(NC(=O)CCCOc2cc(=O)n(C)c3ccccc23)c1 | >57 | i
COC(=O)[C@@]1(Cc2ccc(F)cc2)[C@H]2c3cc(C(=O)N(C)C)n(CCO)c3C[C@H]2CN1C(=O)c1ccccc1 | . | i
CCOCCCNC(=O)CC1Oc2ccc(C)cc2NC1=O (configuration not stated) | . | i
Cc1n[nH]c(C)c1S(=O)(=O)Nc1ccc2c(c1)OCCO2 | >57 | i
O=C(Cn1c(=O)n(CCCC(=O)NC2CCCC2)c(=O)c2ccccc21)NCCC1=CCCCC1 | >57 | i
COc1cccc(-n2nnc3c(=O)n(Cc4ccc(Br)cc4)cnc32)c1 | >57 | i
CN1CCN(C2=C(Cl)C(=O)N(CCc3ccccc3)C2=O)CC1 | >57 | i
COC(=O)c1nc2n(n1)C(c1ccc(OC)c(OC)c1)C(C(=O)OC1CCCCC1)=C(C)N2 (configuration not stated) | >57 | i
O=C(c1cccnc1)N(Cc1ccccc1)c1ccccc1 | >57 | i
COc1ccc(C2CC(c3ccccc3)Nc3nc(NC(=O)c4ccco4)nn32)cc1 (configuration not stated) | >57 | i

mol | Bst PK mod | TsaE inh
COCCn1c(SCc2cnc(-c3ccccc3)s2)nnc1-c1ccncc1 | >57 | i
COc1cccc(NC(=O)CN(c2cccc(F)c2)S(C)(=O)=O)c1 | >57 | i
O=c1onc2cnc3ccccc3n12 | . | i
Clc1ccc(OCCn2cnc3ccccc32)cc1 | >57 | i
CC(=O)Nc1nnc(SCC(=O)NCCOc2ccccc2)s1 | . | i
COC(=O)c1cc2oc3ccccc3c2n1Cc1ccccn1 | >57 | i
Cc1cc(NS(=O)(=O)c2cccs2)no1 | >57 | i
COCCOC(=O)C1=C(C)NC(C)=C(C(=O)OC(C)C)C1c1cccc([N+](=O)[O-])c1 (configuration not stated) | >11 | .
CCOc1ccccc1-n1c(SCC(=O)N2CCOCC2)nnc1-c1ccccn1 | >57 | i
CCOc1cccc(C2c3c(oc4ccccc4c3=O)C(=O)N2c2ccccn2)c1 (configuration not stated) | . | i
CCOc1cc(S(=O)(=O)NC2CCCCCC2)ccc1F | >57 | i
O=C1NC2NC(=O)N(C(Cc3ccccc3)C(=O)O)C2N1 (configuration not stated) | . | i

mol | Bst PK mod | TsaE inh
COc1cc(OC)cc(-n2c3nc4ccccc4nc3c3c(=O)n(CC4CCCO4)cnc32)c1 (configuration not stated) | >57 | i
CCN(CC)c1nc2cc(OC)ccc2cc1C#N | . | i
O=C(c1cnccn1)N1CCC2(CC1)CCN(c1ccccn1)CC2 | . | i
Clc1ccccc1OCc1nnc(-c2ccccc2Br)o1 | >57 | i
CCOc1ccc(C(=O)N(CN2CCCC2=O)c2ccccc2)cc1 | >57 | i
O=C(Nc1ccccc1)N[C@H]1C[C@H](C(=O)O)Nc2cc(Cl)cc(Cl)c21 | . | i
O=C1CCCCCN1CP(=O)(O)CN1CCOCC1 | >57 | i
CCCN(Cc1cc2cc(C)ccc2[nH]c1=O)S(C)(=O)=O | >57 | i
Oc1c(-c2cc(-c3ccco3)[nH]n2)ccc2ccccc12 | 8.3* | i
O=C(NC1CCCCC1)N1CCc2ccccc21 | >11 | i
CCOc1ccccc1Nc1ccc(N)cc1S(=O)(=O)O | . | i
CCOC(=O)N1CCN(S(=O)(=O)c2ccc(OCC)c3ccccc23)CC1 | >57 | i

mol | Bst PK mod | TsaE inh
O=C(COC(=O)c1cccc(S(=O)(=O)N2CCN(c3ccccc3)CC2)c1)NCc1ccco1 | >57 | i
O=C1CCCCCN1Sc1ccccc1 | >57 | i
Cc1ccc(-n2c(Cc3cccs3)nnc2SCC(=O)Nc2ccc(S(N)(=O)=O)cc2)cc1 | >57 | i
O=C(O)c1oc(C(=O)O)c(C(=O)O)c1C(=O)O | . | i
Cc1ccc(-c2nnn(CC(=O)N(CC(=O)NCC3CCCO3)c3ccc(F)c(Cl)c3)n2)o1 (configuration not stated) | >57 | i
O=C(Nc1nncs1)c1ccc(Br)c(S(=O)(=O)N2CCCC2)c1 | >57 | i
CCn1c(SCC(=O)Nc2nc3ccccc3s2)nnc1-c1ccc(OC)cc1 | >57 | i
COc1ccc2cc(C#N)c(NC(C)C)nc2c1 | . | i
O=C(C(Cc1ccccc1)n1cccc1)N1CCCCCC1 (configuration not stated) | . | i
CCCn1c(CNS(=O)(=O)c2ccc(C)cc2)nc2ccccc21 | . | i
COc1ccccc1C(=O)NCC(c1cccnc1)N(C)C (configuration not stated) | >57 | i
O=C(CCNc1n[nH]c(=O)[nH]c1=O)N1CCOCC1 | >57 | i

mol | Bst PK mod | TsaE inh
C=CCn1c(SCC(=O)Nc2cc(NC(C)=O)ccc2OC)nnc1-c1ccccn1 | >57 | i
O=C(Nc1ccc2c(c1)OCO2)c1cc2n(n1)C(C(F)(F)F)CC(c1ccccc1)N2 (configuration not stated) | >26 | .
CCOC(=O)CCC(=O)N1CCNC(=O)C1 | . | i
O=C(COc1ccccc1O)Nc1ccc(Cl)cc1 | 11* | i
OC(COc1ccc2cc(Br)ccc2c1)CN1CCCC1 (configuration not stated) | . | i
CNc1nc2c(c(=O)n(C)c(=O)n2C)n1Cc1ccccc1 | >57 | i
COc1ccc(CNC(=O)c2cc(-c3cccc(OC)c3)on2)cc1 | . | i
COc1ccc(/C=N/n2c(=O)[nH]c3c([nH]c4ccc(C)cc43)c2=O)cc1CN1CCOCC1 | . | i
COc1ccc(NC(=O)C2CCCN(S(=O)(=O)c3cnc[nH]3)C2)cc1 (configuration not stated) | . | i
CCCCCCc1cc2cc(-c3nnc(-c4ccccc4O)o3)c(=O)oc2cc1O | >11 | .
CCc1nc(SCC(=O)c2ccc(C)c(C)c2)n[nH]1 | . | i
CC1(C)Oc2ccc3ccc(=O)oc3c2/C(=C/N)C1=O | . | i

mol | Bst PK mod | TsaE inh
N#Cc1cc2sc3nnc(-c4ccncc4)n3c2cc1C#N | . | i
COC(=O)[C@H](Cc1ccccc1)NC(=O)NCc1ccc(S(N)(=O)=O)cc1 | >57 | i
CC(=O)N(CC(=O)O)c1ccccc1C(=O)O | . | i
COCCn1nnnc1C(c1ccccc1)N1CCN(Cc2ccc3c(c2)OCO3)CC1 (configuration not stated) | >57 | i
O=C(CSc1ncn[nH]1)NC1CC2CCC1C2 (configuration not stated) | >57 | i
C=CCNC(=O)C1CCN(S(=O)(=O)CC)CC1 | >57 | i
CCOC(=O)c1c(NC(=O)CSc2nnc(-c3ccc(OC)cc3)o2)sc2c1CCC2 | >57 | i
C=CCn1c(COc2ccccc2F)nnc1SCC(=O)NC(=O)NCc1ccco1 | >57 | i
Cc1cc(CN2C(=O)c3ccccc3C2=O)cc(N2CCOCC2)c1 | . | i
O=C(O)c1cc2nc(-c3ccccc3)cc(C(F)(F)F)n2n1 | >57 | i
COc1cccc(C(=O)N2CCN(CCCc3ccccc3)CC2)c1OC | >57 | i
O=C(NC1CCCC1)c1cccc(S(=O)(=O)N2CCCCC2)c1 | >57 | i

One compound at a time (already shown). Order of screens: Bst PK mod | TsaE inh
C=CCNC(=O)C1CCN(S(=O)(=O)CC)CC1 as listed: >57 | i
O=C(NC1CCCC1)c1cccc(S(=O)(=O)N2CCCCC2)c1 as listed: >57 | i
COCCn1nnnc1C(c1ccccc1)N1CCN(Cc2ccc3c(c2)OCO3)CC1 (configuration not stated) as listed: >57 | i
O=C(CSc1ncn[nH]1)NC1CC2CCC1C2 (configuration not stated) as listed: >57 | i
CCOC(=O)c1c(NC(=O)CSc2nnc(-c3ccc(OC)cc3)o2)sc2c1CCC2 as listed: >57 | i

Later entries
mol | Bst PK mod | TsaE inh
Cc1ccc(-c2nc(C(=O)NC3CCCCCC3)no2)cc1 | . | i
Cc1c(C(=O)Nc2ccc(Cl)cn2)oc2ccccc12 | >57 | i
c1ccc(-c2cnc(CSc3nnc4ccccn34)o2)cc1 | . | i
COc1ccc(CCNC(=O)C2CCN(Cc3nc(-c4ccccc4F)oc3C)CC2)cc1OC | >57 | i
CCN(CC)C(=O)CSC1=C(C#N)C(c2cccs2)C=C(C)N1 (configuration not stated) | >26 | .
O=C(COc1ccccc1)NCCn1ccc2ccccc21 | . | i
Cc1cc(Cl)ccc1OCCCC(=O)N1CCOCC1 | >57 | i
O=C(NCc1cccs1)C1CCN(S(=O)(=O)N2CCCC2)CC1 | >57 | i
CCOC(=O)NC(=O)CSc1nnnn1-c1ccccc1 | >57 | i
